Rango-impB inh: inhibitors of Rango-importin beta complex formation; Potency, µM (top dose mostly 92.2 µM), for inactives: at the highest dose inhibition of complex formation; Rango CFP/YFP FRET sensor + importin beta, 45 min; 340,000 tested, 0.031% active; Q14974; AID 540263; active = rising FRET ratio curve, often small or poorly fitted; inconclusive = mostly compound fluorescence or quenching in the first reads; inactive = flat curves in all reads;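 further: potency means the concentration at half of the fitted maximal effect; 0% = DMSO wells and 100% = buffer wells lacking importin beta; nearly all actives have a fitted effect of over 15% in size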
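FRET biosensor (snurportin 1 IBB flanked by EYFP and cerulean), 50 nM, with compound 5 min, then 0.125 microM importin beta in PBS, 1 mM DTT, 0.02% Tween-20, 0.1% BSA. CFP/YFP ratio read after 45 min at room temperature; pre-read flags interference.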
GLA inh pH 4.5: blocks human alpha-galactosidase A at pH 4.5. 230,000 tested, under 10 active. activity change, negative = inhibition, % at 105 µM. purified enzyme, 4-MU-alpha-Gal fluorescence, pH 4.5. P06280. AID 1467; inconclusive = small, poorly fitted or top-dose-only inhibition, or a rising curve; inactive = flat fitted curve, though single readings scatter; no compound was filed as active;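 further: 0% = full activity with enzyme and -100% = basal without enzyme; dose as in the result columns while the protocol names 77 µM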
miR-21 reporter: miR-21 reporter, rising signal | HeLa miR-21 FLuc reporter, luciferase, 48 h | 340,000 tested, under 10 active | Potency, µM (highest dose often 38.3 µM), without a hit: top-dose reporter change, positive = more light; active = well fitted rising curve with a large enough effect; inconclusive = small, poorly fitted or top-dose-only effect; inactive = no such curve, though single readings can be large or run the other way;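 further: % of control where 0% means no effect; miR-21 action dims this reporter so a rising signal means less miR-21 action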
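Luminescence from a firefly luciferase reporter carrying a miR-21 binding site downstream, stably expressed under a CMV promoter in HeLa cells that make miR-21 endogenously, reports miRNA modulation after 48 h compound exposure up to approximately 40uM final.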
Rango release inh: prevents RanGTP from dissociating the Rango-importin beta complex. Potency, µM (series often up to 46.1 µM), inactives show at the highest dose activity change, negative = inhibition. Biochemical FRET Rango-importin beta, RanGTP-induced dissociation. 340,000 tested, 0.071% active; active means falling FRET ratio curve, often poorly fitted, with flat reads before Ran was added; inconclusive means other falling curves, or compound fluorescence or quenching; inactive means flat or rising ratio curve;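 further: potency means the concentration at half of the fitted maximal effect; % of control where 0% means no effect; nearly all actives have a fitted effect of over 45% in size; -100% = wells without RanGTP and RCC1; the record marks most hits as doubtful in a second field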
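Two FRET readings bracket the reaction: one 5 min after compound meets Rango–importin beta, another 45 min after RanGTP-RCC1 (0.6 uM Ran, 0.2 uM RCC1, 2 mM GTP) is added. Only the second defines inhibition.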
An asterisk follows results filed as active; ? = inconclusive; nt = not tested or not shown; & = joins results of further samples. Only part of the results is shown, so the mix of outcomes need not match the whole.

SMILES	Rango-impB inh	GLA inh pH 4.5	miR-21 reporter	Rango release inh
CCOC(=O)c1nc2ccccc2c(C)c1C	-5.5%	-11.1	-11.4%	2.4%
O=C(C[n+]1ccc(-c2ccccc2)cc1)Nc1ccc([N+](=O)[O-])cc1	0.1%	nt	1.7%	-14.3%
CC1(C(=O)NC2CCCCC2)CCC(=O)N1Cc1ccc2c(c1)OCO2 (stereo unspecified)	0.5%	2.2	1.2%	12.3%
COc1ccc(NS(=O)(=O)c2cc(NC(=O)c3ccccc3F)ccc2N2CCCC2)cc1	1.7%	-12.7	8.1%	0.5%
COc1ccc(NC(=O)COc2cccc3c2CCN(C)C3=O)c(OC)c1	0.3%	nt	-3.2%	8.4%
O=C(NCCc1ccccn1)c1cc(C(=O)C2CCCCC2)c[nH]1	-5.2%	-0.2	-17.6%	0.0%
COc1ccccc1CN1CC(C(=O)NCCc2ccc(C)o2)CCC1=O (stereo unspecified)	-0.3%	nt	-5.8%	-7.1%
Cc1ccc(CS(=O)(=O)c2ccc(C(=O)N3CCN(c4ccccn4)CC3)cc2[N+](=O)[O-])cc1	-1.1%	-24.7	28.6%	-5.9%
CCCCn1c(N)c(N(CCC(C)C)C(=O)C2=NN(c3cc(C)ccc3C)C(=O)CC2)c(=O)[nH]c1=O	-1.0%	nt	nt	-8.9%
COc1cccc2sc3ccc(NCc4ccc5c(c4)OCO5)cc3c(=O)c12	?	nt	-41.0%	?
CCOC(=O)CCCSc1nc2sc(C)c(C)c2c(=O)[nH]1	3.6%	-1.6	1.3%	2.7%
CC(Sc1cccc(C(F)(F)F)c1)C(=O)NC(N)=O (stereo unspecified)	2.4%	3.8	-0.1%	-20.9%
Oc1ccc(-c2csc(Nc3cccc4ccccc34)n2)cc1O	-0.9%	nt	-21.7%	-0.9%
C=CCN(c1ccccc1OC)S(=O)(=O)c1cccc(C(=O)NCc2ccco2)c1	?	nt	nt	3.4%
COc1ccc(C(=O)N(c2ccccc2)c2nccc3ccccc23)cc1OC	-0.1%	nt	nt	-11.6%
O=C1c2ccccc2C(=O)N1C(CO)C(O)c1ccc([N+](=O)[O-])cc1 (stereo unspecified)	0.9%	nt	2.3%	13.9%
O=C(Nc1ccc(Br)cc1F)c1ccncc1	-0.9%	-14.8	-41.9%	-5.0%
COc1ccc(S(=O)(=O)N2CCN(CC(=O)Nc3c(C)n[nH]c3C)CC2)cc1OC	2.0%	nt	nt	1.0%
CCC1(CC)NC(=O)N(CC(=O)N2N=C(c3ccc(Cl)cc3)CC2c2ccco2)C1=O (stereo unspecified)	-3.2%	-22.9	-33.6%	-20.6%
Cc1ccc(C(=O)N2CCN(C(=O)N3CCOCC3)CC2)cc1	-4.3%	6.7	-5.3%	5.3%
N#C/C(=C\c1cn(Cc2ccc(F)cc2)c2ccccc12)C(=O)NCc1ccco1	?	4.2	-2.7%	?
CCOC(=O)CCc1c(C)nc2c(c(C)nn2-c2ccc(C)cc2)c1C	0.4%	nt	-0.1%&-4.3%	3.6%
CC(NS(=O)(=O)c1ccccc1)C(=O)NCc1ccco1 (stereo unspecified)	3.9%	0.6	-6.3%	8.2%
Fc1cccc(-c2csc(-c3ccno3)n2)c1	0.3%	-8.1	-16.7%	19.4%
O=S(=O)(c1cccc2nonc12)N1CCN(c2ccccc2F)CC1	1.2%	10.7	-1.5%	?
O=C(Nc1cccc(-c2cn3c(n2)SCC3)c1)c1ccc(Br)o1	-0.1%	2.9	-11.9%	-5.9%
Cc1ccc(O)c(C(=O)c2cnn(C(=O)c3cccc(S(=O)(=O)N(C)C)c3)c2)c1	0.4%	nt	nt	1.7%
CC(=O)Nc1ccc(C(=O)OCC(=O)NCc2cccs2)cc1	-0.4%	nt	nt	27.1%
CC(NC(=O)c1cccc(N(C)C)c1)c1ccc(-n2ccnc2)cc1 (stereo unspecified)	1.2%	nt	-9.5%	8.3%
Cc1ccc(Cl)c(OCC(=O)Nc2ccc(S(=O)(=O)NC3=NCCCCC3)cc2)c1	-1.5%	nt	nt	-2.1%
COc1cc2c(cc1NC(=O)c1ccc3c(c1)OCO3)oc1ccccc12	-1.2%	-1.4	-63.2%	-15.4%
Cc1ccc(N2CC(C(=O)N3CCN(c4ccccc4)CC3)CC2=O)cc1 (stereo unspecified)	1.6%	-7.7	-5.3%	-5.9%
CC1CCN(S(=O)(=O)c2cccc3cccnc23)CC1	0.0%	nt	0.2%	-6.4%
CC(C)CCN(C(=O)Cc1ccc(Cl)c(Cl)c1)c1c(N)n(Cc2ccccc2)c(=O)[nH]c1=O	4.4%	2.9	0.1%	5.0%
Cc1cccc(-c2nnc(SCC(=O)c3ccc(O)cc3O)n2C)c1	2.4%	nt	-0.5%	0.7%
CC(=O)Nc1ccc(C2=NNC(=Nc3ccc(S(=O)(=O)N4CCOCC4)cc3)SC2)cc1	6.9%	-0.5	10.8%	15.2%
O=C(CSc1nnc(C2CCCCC2)n1-c1ccccc1)NCc1ccco1	2.6%	-8.6	0.6%	-8.5%
COc1ccc(CN2CCCCCC2)cc1Br	-0.4%	nt	4.6%	-15.0%
C/C(=N\NC(=O)c1nnn(-c2nonc2N)c1-c1ccc2c(c1)OCO2)c1cccs1	1.3%	nt	1.5%	25.8%
CCN(CC)S(=O)(=O)c1ccc(N2CCCC2)c(NC(=O)Cc2ccc(OC)cc2)c1	3.7%	-5.0	-2.6%	?
CCN(Cc1ccncc1)S(=O)(=O)c1ccc(C(C)=O)cc1	-0.6%	1.3	17.9%	5.0%
COc1ccc2cc(S(=O)(=O)NC3CC(C)(C)NC(C)(C)C3)ccc2c1	-2.7%	nt	-3.3%	4.3%
CCc1nnc(NS(=O)(=O)c2ccc(NC(=O)c3ccc(C#N)cc3)cc2)s1	0.3%	nt	1.1%	1.4%
CCCCNC(=O)/C(=C\c1ccc([N+](=O)[O-])o1)NC(=O)c1ccccc1	?	-1.5	19.1%	7.5%
O=C(CN1CCC(C(=O)c2ccc3c(c2)OCCO3)CC1)Nc1ccccc1F	0.8%	nt	-0.4%	10.2%
O=[N+]([O-])c1ccc(S(=O)(=O)N/N=C/c2ccsc2)cc1	-2.0%	nt	-2.8%	-5.1%
O=C(NCCc1ccncc1)Nc1ccc(Cl)c(Cl)c1	-4.9%	-9.4	-4.0%	0.8%
CN(CC(=O)N1CCCc2c1c(=O)oc1ccc(O)cc21)Cc1ccccc1	-1.0%	-13.2	0.1%	-4.9%
Cc1noc2ncnc(Oc3ccc(F)cc3)c12	?	4.6	-2.8%	3.8%
COc1cc(NC(=O)COc2ccccc2[N+](=O)[O-])ccc1NC(=O)c1cccs1	-2.1%	-9.8	-30.1%	-11.5%
O=C1C(=NO)C(c2ccccc2)Oc2ccccc21 (stereo unspecified)	-4.1%	nt	nt	-13.5%
O=C(N/N=C/C(Br)=C/c1ccccc1)c1ccncc1	1.9%	-3.8	27.2%	9.2%

Compound activity as filed in PubChem BioAssay.
